CtBP-E1A blk = CtBP/E1A binding inhibition; AlphaScreen GST-E1A/His-CtBP binding, 1536-well; active compounds read low; control for the full effect not named in the record; activity change, % (no concentration beside the values); actives 0.49% (n = 340,000); in the data active means activity change below about -65%; inconclusive means about -30% to -65%; inactive means above about -30%; note: % is set by controls: 0 for no effect and ±100 for the full control effect
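Steps: dispense buffer (Tris pH 8.0, NaCl 300 mM, TCEP 1 mM, BSA, Tween 20); add 5X protein mix (GST-E1A, His-CtBP, 125 nM each); pin 23 nL compound; 2 h at 37 °C, dark; add 5X beads (50 ug/mL); 1 h; read.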
D2 potentiator = positive allosteric modulators of human D2 dopamine receptor; P14416; DiscoveRx D2 beta-arrestin cells, luminescence, 90 min; 100% = 57 uM dopamine signal; potentiation, % (concentration not given with the values); actives 0.23% (n = 360,000); active = potentiation of 50% or more; inconclusive = 30% to 50%; inactive = 30% or less;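 note: compound concentration not given in the record; tested on top of an EC20 dose of dopamine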
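PathHunter D2 cells, attached overnight at 37 deg C, received compound in DMSO plus dopamine at EC20 (50 nM final) for 90 min at 37 deg C. Beta-arrestin recruitment was read as luminescence after 1 h with detection reagent at ambient temperature.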
Six1-Eya2 inh = inhibitors of human Six1/Eya2 interaction. Q15475+O00167. AlphaScreen GST-Six1/His-Eya2 binding, biochemical; active compounds read low; control for the full effect not named in the record. activity change, % (concentration not given with the values). actives 0.56% (n = 360,000). AID 651725; in the data active = activity change below about -65%; inconclusive = about -30% to -65%; inactive = above about -30%; note: % is set by controls: 0 for no effect and ±100 for the full control effect
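Six1/Eya2 binding was read as AlphaScreen signal after compounds were pinned into GST-Six1 plus His-tagged Eya2 (5X stock 250/500 nM) in pH 8.0 Tris/NaCl/TCEP buffer, beads added, then incubated 1 h, 37 C, dark.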
TRPV1 PAM = enhances activation of the human vanilloid receptor TRPV1. actives 0.02% (n = 320,000). potentiation, % at 8.33 µM. TRPV1-expressing cells, Fluo-8 calcium influx, capsaicin EC20 potentiation; host cell line not named in the record; control for the full effect not named in the record; active means potentiation above 80%; inconclusive means 30% to 80%; inactive means below 30%; note: 0% is about no effect
Target sequence (Q8NER1 whole entry, looked up): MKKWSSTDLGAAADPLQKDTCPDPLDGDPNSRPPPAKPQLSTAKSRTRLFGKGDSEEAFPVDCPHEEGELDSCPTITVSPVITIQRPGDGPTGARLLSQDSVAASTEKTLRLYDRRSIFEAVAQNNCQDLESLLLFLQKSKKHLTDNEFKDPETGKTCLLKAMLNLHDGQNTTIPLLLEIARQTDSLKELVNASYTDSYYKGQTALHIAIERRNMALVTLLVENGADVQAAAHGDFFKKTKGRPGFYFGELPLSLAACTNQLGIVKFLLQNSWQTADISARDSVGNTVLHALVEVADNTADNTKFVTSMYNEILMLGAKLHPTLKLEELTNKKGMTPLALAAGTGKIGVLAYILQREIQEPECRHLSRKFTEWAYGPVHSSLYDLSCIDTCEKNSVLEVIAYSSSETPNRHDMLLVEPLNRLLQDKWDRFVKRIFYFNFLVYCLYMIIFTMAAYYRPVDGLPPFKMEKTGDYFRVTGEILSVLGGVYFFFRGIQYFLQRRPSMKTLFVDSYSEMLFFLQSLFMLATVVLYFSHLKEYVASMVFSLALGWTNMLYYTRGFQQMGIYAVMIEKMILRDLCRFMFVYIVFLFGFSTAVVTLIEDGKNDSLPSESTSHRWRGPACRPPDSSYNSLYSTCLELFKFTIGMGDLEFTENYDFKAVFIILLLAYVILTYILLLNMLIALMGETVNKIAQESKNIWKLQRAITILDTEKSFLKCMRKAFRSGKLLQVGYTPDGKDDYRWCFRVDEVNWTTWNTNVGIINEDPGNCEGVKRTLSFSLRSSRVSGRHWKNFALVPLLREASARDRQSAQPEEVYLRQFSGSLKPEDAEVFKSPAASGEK
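Fluo-8 calcium influx in TRPV1-expressing cells, kinetic read (ex 480/em 520 nm). Compound added and read 3 min for agonist activity, followed by capsaicin at EC20 final and 2 min further read for enhancement.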
TRPML1 agonist = agonists of human TRPML1 channel; Q9GZU1; TRPML1-expressing cells, Ca2+ dye fluorescence, FDSS; host cell line not named in the record; reference of the full effect not given here; activation, % (test concentration not listed); actives 0.12% (n = 410,000); in the data active = activation above about 50%; inconclusive = about 30% to 50%; inactive = below about 30%; note: 0% is about no effect; the text of the record puts the active cut at 80%
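Cells: TRPML1-DL, 1X Tet inducer, ~16 h at 37 degrees C/5% CO2. Dye: ABD Ca8 no-wash + quencher, 45-90 min RT. Read: 10 s baseline, compound add, 110 s agonist phase; 54-4 EC80 (4uM final), 110 s antagonist phase.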
TRPML1 blocker = human mucolipin-1 channel inhibition; Q9GZU1; actives 0.02% (n = 390,000); activity change, negative = inhibition, % (concentration not given with the values); AID 624415; TRPML1-inducible cells, Ca2+ dye fluorescence, FDSS; active compounds read low; inhibition of EC80 agonist-evoked calcium signal; in the data active means activity change below about -50%; inconclusive means about -30% to -50%; inactive means above about -30%;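 note: stimulus is agonist 54-4 at its EC80 concentration; % is set by controls: 0 for no effect and ±100 for the full control effect; the text of the record puts the active cut at -80%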
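TRPML1-DL cells, Tet-induced overnight (~16 h, 37 °C) at 1,500 cells/well, were loaded with Ca8 no-wash dye plus quencher for 45-90 min at room temperature. Compounds were pinned during FDSS kinetic reading; agonist 54-4 at EC80 (4 uM final) then added.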
The depositor's hits bear a star; ? = inconclusive; / = not tested or not shown; & = joins results of further samples. Not a hit list; any-hit rate near 0.95%.

structure	D2 potentiator	TRPML1 agonist	TRPV1 PAM	Six1-Eya2 inh	CtBP-E1A blk	TRPML1 blocker
CCNC(=O)COC(=O)c1[nH]c(C)c(C(=O)OC)c1C	-18	-0.4	3	6	6	69
C#CCNS(=O)(=O)c1ccc(F)cc1Br	/	-0.8	/	4	0	-14
CC(NC(=O)COC(=O)CCNC(=O)c1ccco1)C12CC3CC(CC(C3)C1)C2 (configuration not stated)	-8	0.9	-3	9	0	-19
COc1ccc2[nH]c(=O)c(NC(N)=S)nc2c1	-9	0.8	0	?	?	2
COc1ccc(C(=O)NC(=S)Nc2nnn(C)n2)cc1	-21	-0.6	-4	0	1	-3
C=CCN(CC=C)Cc1ccc(C(=O)OC)o1	-17	1.1	8	-6	3	-1
N#C/C(=C\c1cn(CCOc2ccccc2)c2ccccc12)C(=O)NCC1CCCO1 (configuration not stated)	-27	2.5	14	-4	1	44
COc1ccccc1C(=O)NCC(=O)Nc1ccccc1	-6	-0.8	?	18	0	-1
Cc1cc(C)n(CCN(C)Cc2nc(Cc3ccccc3F)no2)n1	-8	-1.1	12	6	7	32
CN(C)CCNC(=O)c1cc2c(s1)-c1ccc(Cl)cc1SC2	-31	-0.4	-6	12	/	-11
Cc1ccc(NCc2nnc(SCC(=O)Nc3ncc(C)s3)n2Cc2ccco2)c(C)c1	-23	2.7	-3	-3	-11	-14
O=C(c1ccoc1)N1CCCC(N2CCN(c3ccc(F)cc3)CC2)C1 (configuration not stated)	-17	0.0	-13	1	-4	7
Cc1ccc(C(=O)COC(=O)CNC(=O)c2cccs2)cc1C	-6	1.2	-1	-2	/	-9
CCN(CC)S(=O)(=O)c1cccc(-n2c(O)c(C=Nc3ccccc3C(=O)O)c3ccccc3c2=O)c1	23	/	-29	0	-7	/
COC(=O)c1cccc(N2C(=O)c3cccnc3C2=O)c1	-6	0.1	4	-29	-13	5
Cc1cccc2cc(CN(CCN3CCOCC3)C(=O)NCc3ccccc3)c(=O)[nH]c12	-11	-0.9	10	0	1	-1
CN(C)C(CNC(=O)c1ccco1)c1cccs1 (configuration not stated)	-8	1.2	6	-1	1	6
COc1ccc(C(=O)c2c[nH]c(C(=O)NCc3cccs3)c2)cc1	-13	0.7	12	26	2	1
Cc1cccc(OCC(=O)NCCNC(=O)c2cccnc2)c1	-1	-0.2	1	-7	5	5
Nc1nc2c(ncn2[C@@H]2O[C@H](CNCc3cnc(N4CCOCC4)nc3)[C@@H](O)[C@H]2O)c(=O)[nH]1	-7	0.5	/	-3	-5	-6
COc1ccc(C(C(=O)NC2CCCCC2)N(C(=O)CCl)c2cccc(Cl)c2)cc1 (configuration not stated)	20	0.3	-4	14	0	7
CCOC(=O)C(C)On1c(-c2ccccc2)nc2ccc([N+](=O)[O-])cc21 (configuration not stated)	-16	1.3	-10	0	-11	-6
CCOc1ccc2ccccc2c1/C=N/NC(=O)CNC(=O)c1ccccc1F	-9	2.1	3	-2	-3	9
c1ccc2c(c1)OCC(CNCC1COc3ccccc3O1)O2 (configuration not stated)	-10	-0.3	1	3	3	-9
O=C(C1CCCN(S(=O)(=O)c2ccc(Br)cc2)C1)N1CCN(Cc2ccccc2)CC1 (configuration not stated)	-20	0.5	-17	-3	-8	12
Cc1ccc([C@H]2C(C(=O)O)=C[C@@H](C(C)(C)C)N2S(=O)(=O)c2ccc(C)cc2)cc1	/	-0.5	/	-1	2	23
Cn1cnnc1SCC(=O)Nc1ccc(OCc2ccccc2)cc1	-5	0.0	-3	-2	2	1
C=CCn1c(=O)/c(=C/c2cc(OC)c(OC)c(OC)c2)s/c1=C(/C#N)c1nc2ccccc2n1C	-15	14	24	-8	-2	0
CCOc1ccc(S(=O)(=O)Nc2ccc(C(=O)N/N=C/c3c(C)nn(-c4ccccc4)c3N3CCCC3)cc2)cc1	-1	-0.6	2	5	6	-11
CC(C)Cn1c(CCCNC(=O)c2ccc(F)cc2)nc2ccccc21	-9	0.9	-8	-2	-6	-10
O=C(CCNC(=O)c1ccco1)NCc1ccc(F)cc1	7	-1.3	/	5	/	-4
CCC(=O)Nc1ccc(C(=O)CSc2nnc(CNc3ccc(Cl)cc3)o2)cc1OC	-13	0.1	14	-1	8	-7
C#CCOCCOCCOCCNc1nc(N2CCN(C(=O)[C@H](CCCCN)n3cc(C(N)CC(C)C)nn3)CC2)nc(N2CCN(C(=O)[C@H](CCC(=O)O)n3cc(C(N)[C@H](C)CC)nn3)CC2)n1 (some centres not stated)	-5	0.1	-13	-7	-5	17
Cc1nnc(NC(=O)c2csc3c2CCC(C)C3)s1 (configuration not stated)	0	4.0	3	0	9	-3
O=C1CSC(c2ccc([N+](=O)[O-])cc2)N1c1ccc(O)cc1 (configuration not stated)	2	-1.2	7	-3	6	0
CCN(CCNC(=O)c1cc(C)nn1-c1ccccc1)c1ccccc1	2	-0.7	-12	-10	0	-1
CCOC(=O)[C@]12CCCC=C1N(Cc1ccc3c(c1)OCO3)C(=O)[C@H](CC(=O)N1CCN(C(=O)C3CC3)CC1)C2	/	-0.3	/	0	7	/
CCCCOC(=O)C1=C(C)Nc2ncnn2C1c1ccc(OC)c(OC)c1OC (configuration not stated)	-8	-0.4	-15	0	5	8
CCCNC(=O)c1cc(C2CCCCN2C(=O)OC)on1 (configuration not stated)	-4	-0.6	/	-2	3	/
c1csc(-c2nc(-c3ccncc3)no2)c1	-8	0.7	2	4	6	-15
O=C(NCC(c1cccnc1)N1CCN(c2ccccc2)CC1)c1ccco1 (configuration not stated)	-5	0.6	/	2	5	3
O=c1cc(NCCCO)c2ccccc2o1	-7	-1.0	12	3	3	3
Cc1cc(C)n(-c2nc(NC(C)C)nc(NC(C)C)n2)n1	-5	-0.3&0.0	-5	-2	-7	-5
CC(=O)C1CCC2C3CC=C4CC(SC(=N)N)CCC4(C)C3CCC12C (configuration not stated)	-21	0.1	/	6	0	-13
CC(=O)NCc1ccc(-c2csc(NC(=O)CCc3nc4ccccc4c(=O)[nH]3)n2)s1	-15	0.1	/	-21	-3	1
C[C@H](NC(=O)NCc1cccs1)C(=O)O	-10	0.2	5	5	13	42
CC(C)CC(=O)N1CCN(S(=O)(=O)c2ccc(Cl)cc2)CC1	-5	-0.7	2	3	0	-2
O=C(N/C(=C/c1ccccc1)C(=O)N1CCCCC1)c1ccccc1	-17	0.4	-6	8	3	-4
O=C(NCc1ccccc1)c1ccco1	-20	1.1	24	12	-1	15
O=c1[nH]c(CSc2ncc(C(F)(F)F)cc2Cl)nc2ccccc12	2	0.0	2	4	2	-5
C=CCn1c(=O)c2ccccc2n2c(SCC(=O)NC)nnc12	-3	0.6	-3	10	/	-13
Cc1noc(NS(=O)(=O)c2ccc(NC(=O)/C=C/c3ccccc3)cc2)c1C	0	0.4	/	-11	-26	-5
COC(=O)C1=CN(Cc2ccccc2)C=C(C(=O)OC)C1c1ccc(O)c(OC)c1	-16	/	-3	4	/	/
CCOc1ccc2nc(N3CCCC(C(=O)NCCCN4CCOCC4)C3)sc2c1 (configuration not stated)	-7	-0.8	9	0	4	0
COc1ccccc1/C=C1\SC(=S)N(CCC(=O)NNC(=O)c2ccccc2OC)C1=O	1	-0.5	-9	2	0	-16
Cc1ccc([N+](=O)[O-])cc1NC(=O)c1cccnc1	-7	-0.1	?	2	2	-12
CC1CCCN(S(=O)(=O)Cc2ccc(Cl)cc2)C1 (configuration not stated)	-4	-0.3	-3	-1	16	8
O=C(CN1CCCN(Cc2ccc(F)cc2Cl)C1=O)NC1CCCCCC1	-2	0.7	-7	0	9	-14
CCn1c(=O)cc(OCC(=O)NC(C)c2ccc3c(c2)OCCO3)c2ccccc21 (configuration not stated)	-13	3.5	7	-3	-11	34
S=C1NCN(CCc2ccccc2)CN1	-4	0.5	2	1	6	1

Next section
structure	D2 potentiator	TRPML1 agonist	TRPV1 PAM	Six1-Eya2 inh	CtBP-E1A blk	TRPML1 blocker
CCCc1cc(=O)oc2cc(C)cc(OCC(=O)NCCN3CCOCC3)c12	-14	-0.6	?	0	2	-11
COc1cc2c(cc1OC)C(=O)NCC(C)(C)O2	-6	0.0	-1	-4	/	20
COc1ccc(CCNC(=O)c2cccs2)cc1	-5	-0.5	-29	1	-2	4
O=C(NCC(c1ccco1)N1CCc2ccccc21)c1ccccc1F (configuration not stated)	-1	3.3	-16	-22	-3	12
O=C(CSCc1ccccc1)Nc1ccc2c(c1)OCO2	16	-0.8	-16	-2	-5	-9
O=C(NC1CCCC1)C(NS(=O)(=O)c1ccc(Br)s1)c1ccccc1 (configuration not stated)	-11	0.6	4	8	1	-5
O=[N+]([O-])c1ccc2ncnc(N3CCN(Cc4ccc5c(c4)OCO5)CC3)c2c1	-27	0.0	6	-9	/	-9
Cc1ccc2nc(NC(=O)c3ccccc3F)sc2c1	-8	0.9	-6	4	4	-2
Cc1ccc(C(=O)NNC(=O)CSc2nnc(C3CC3)n2C)cc1	0	-0.4	11	23	3	2
COc1cc(NC(=O)c2ccc(F)cc2)c(OC)cc1Cl	-9	0.1	-11	1	-10	7
c1csc(-c2nnc(N3CCOCC3)c3ccccc23)c1	-8	-0.7	-22	-14	/	-6
COc1ccccc1NC(=O)c1ccccc1C(=O)O	-3	-0.5	9	1	8	4
CCOC(=O)[C@]12CCC=C1N(Cc1ccc3c(c1)OCO3)C(=O)[C@H](CC(=O)NCCC(C)C)C2	/	-0.9	/	0	-6	/
C=C(C)Cn1c(CCn2c3ccccc3c3ccccc32)n[nH]c1=S	7	1.6	-13	-18	-3	0
COc1ccc(-c2csc(Nc3ccc(S(=O)(=O)Nc4cc(C)on4)cc3)n2)cc1C	-3	2.4	-7	-6	/	18
Cc1cc(C)cc(C(=O)OCC(=O)Nc2cccc(S(=O)(=O)NC3=NCCCCC3)c2)c1	-10	2.5	13	-9	-12	-1
COC(=O)C1=C(C)N(c2ccc(OC)cc2)C(C)=C(C(=O)OC)C1c1ccc(OC)cc1	-13	1.6	-20	-6	-1	35
CC(C)(C)c1nc2cc(Cl)c([N+](=O)[O-])cc2o1	-28	-1.4	-9	-5	7	3
CNS(=O)(=O)c1cccc(C(=O)OCC(=O)Nc2cc(F)ccc2F)c1	-3	0.2	8	-2	/	1
